Hedgehog inh: Sonic Hedgehog pathway inhibition. AID 2313. 22,000 tested, 2.1% active. inhibition, % (test concentration not listed). Shh-LIGHT2 Gli-luciferase reporter, 30 h;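 active = replicate mean of 65% or more; inconclusive = mean lower but half the replicates past it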;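 note: pathway switched on by Shh-conditioned medium diluted 1 in 25 in low serum; 100 nL library stock added to about 40 µL; 0% = median of neutral wells and 100% = positive control level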
MITF inhib: inhibitors of MITF | TRPM1 promoter luciferase, luminescence, 24 h | inhibition, % (test concentration not listed) | 37,000 tested, 0.28% active;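 active = most replicates at 85% or more, or half of them and the mean; inconclusive = half reach 85% but not the mean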;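 note: human melanocyte line stably carrying TRPM1 promoter luciferase reporter; 0% = vehicle wells and 100% = a positive control; the first replicate is given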
YB-1 expr inh: YB-1 expression inhibition | U2OS, qRT-PCR YB-1 vs CDIP delta delta Cp, 16 h; active compounds read high; zero = DMSO, each unit about twofold | delta delta Cp (YB-1 minus CDIP) (no concentration beside the values) | 30,000 tested, 0.37% active;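 active = delta delta Cp rounded down to an integer at or above 3, about 3 SD of DMSO wells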;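 note: higher means less YB-1 transcript or more CDIP transcript relative to DMSO; stock transfer was 100 nL into about 100 µL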
PD-1 reverse act: reversal of PD-1 mediated T-cell inhibition; 29,000 tested, under 10 active; primary human CD4 T cells, PD-L1 beads, CellTiter-Glo 96 h; AID 2316; activation, % (test concentration not listed);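 active = replicate mean of 50% or more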;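 note: 0% = median vehicle wells and 100% = positive control; 100 nL library stock added to about 50 µL; numbers are from one replicate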
* marks the source's active call; other numbers are inactive results; u = inconclusive; x = not tested or not shown. The list is partial; the hit share may differ from the screen's.

SMILES | Hedgehog inh | MITF inhib | YB-1 expr inh | PD-1 reverse act
C[C@@H]1CN([C@@H](C)CO)C(=O)c2cccc(NS(=O)(=O)c3ccc(Cl)cc3)c2O[C@H]1CN(C)Cc1ccc(-c2ccccc2)cc1 | 0.6 | 30.6 | -1.33 | 3.5
CNC[C@@H]1Oc2ccc(NC(=O)Nc3ccc(F)cc3)cc2CC(=O)N([C@H](C)CO)C[C@H]1C | -26.6 | 1.4 | 0.11 | 0.9
C[C@H](CO)N1C[C@H](C)[C@@H](CN(C)Cc2ccc(C(=O)O)cc2)Oc2ccc(NS(=O)(=O)c3cccs3)cc2C1=O | -78.4 | -0.6 | 0.152 | x
COc1cc(-c2ccccn2)nc(/C=N/O)c1S(C)=O (stereo not drawn) | 82.8* | x | 0.0718 | x
C[C@@H]1CN([C@H](C)CO)C(=O)Cc2cc(NC(=O)Nc3ccc4c(c3)OCO4)ccc2O[C@@H]1CN(C)S(=O)(=O)c1ccccc1 | 9.1 | 15.0 | 0.551 | x
COc1ccc(-n2c(SCC(N)=O)nnc2-c2cccs2)cc1 | x | -0.1 | x | -1.0
O=C(/C=C/c1ccc(O)c(O)c1)O[C@@H]1C[C@](O)(C(=O)O)C[C@@H](O)[C@H]1O | -31.9 | 0.4 | -0.158 | x
CSc1cccc(NC(=O)Cn2cc(Br)c([N+](=O)[O-])n2)c1 | x | 12.5 | x | -1.0
COc1ccc(S(=O)(=O)Nc2cccc3c2O[C@@H](CN(C)C(=O)NC(C)C)[C@H](C)CN([C@@H](C)CO)C3=O)cc1 | -6.1 | 0.0 | -0.312 | 0.3
C[C@@H]1CN([C@H](C)CO)C(=O)c2cc(NC(=O)c3ccncc3)ccc2O[C@@H]1CN(C)Cc1ccncc1 | -23.6 | -0.8 | 0.0175 | x
CCCCCC1C(=O)O/C(=C\C(=O)O)C1=O (stereo not drawn) | -28.6 | 4.6 | 1.24 | 2.7
Cc1ccc(S(=O)(=O)Nc2ccc3c(c2)C(=O)N([C@@H](C)CO)C[C@H](C)[C@@H](CN(C)S(=O)(=O)c2cn(C)cn2)O3)cc1 | x | 0.6 | -0.0871 | 3.0
C[C@@H]1CN([C@H](C)CO)C(=O)c2cc(NC(=O)Cc3ccccc3)ccc2O[C@H]1CN(C)C(=O)Nc1ccc(F)cc1 | x | -9.0 | 0.733 | 0.2
COc1ccc(S(=O)(=O)Nc2ccc3c(c2)CC(=O)N([C@H](C)CO)C[C@H](C)[C@H](CN(C)S(=O)(=O)c2ccc(OC)cc2)O3)cc1 | 38.9 | -7.1 | -0.0226 | 2.3
Cc1ccc(N(C(C)C(=O)Nc2cccc(F)c2)S(C)(=O)=O)cc1 (stereo not drawn) | x | -11.2 | x | -1.5
CC(C)NC(=O)Nc1ccc2c(c1)C(=O)N([C@@H](C)CO)C[C@@H](C)[C@@H](CN(C)S(=O)(=O)c1ccccc1)O2 | -19.6 | 0.6 | 0.121 | 0.9
COc1ccc(C(=O)CC(=O)O)c2c1C=CC(C)(C)O2 | -12.4 | 4.7 | -0.153 | x
C[C@@H]1CN([C@@H](C)CO)C(=O)c2cccc(NC(=O)Nc3ccccc3)c2O[C@@H]1CN(C)Cc1ccc(-c2ccccc2)cc1 | -40.9 | -17.1 | 1.12 | 0.1
C[C@H](CO)N1C[C@H](C)[C@@H](CN(C)S(=O)(=O)c2ccc(Cl)cc2)Oc2c(NS(C)(=O)=O)cccc2C1=O | -5.7 | -8.1 | 0.351 | x
CCCn1nnc(NC(=O)COc2ccccc2Cl)n1 | x | -56.9 | x | -1.2
CC(C)NC(=O)N(C)C[C@@H]1Oc2ccc(NC(=O)CCCCCC(=O)Nc3ccccc3N)cc2C(=O)N([C@@H](C)CO)C[C@H]1C | x | -11.3 | -0.0253 | 1.7
Cc1nn(C(C)C(=O)Nc2ccccc2C(F)(F)F)c(C)c1[N+](=O)[O-] (stereo not drawn) | x | -0.3 | x | 1.0
C[C@H]1CN([C@@H](C)CO)C(=O)c2cc(NC(=O)CCN3CCOCC3)ccc2O[C@H]1CN(C)Cc1ccc(C(F)(F)F)cc1 | 6.6 | -9.9 | -0.337 | -1.6
Cc1ccc(S(=O)(=O)Nc2ccc3c(c2)C(=O)N([C@H](C)CO)C[C@H](C)[C@H](CN(C)C(=O)Nc2ccc4c(c2)OCO4)O3)cc1 | x | 9.4 | -0.0433 | x
Cc1ccccc1NC(=O)c1ccc(C)c(S(=O)(=O)Nc2cccc(C(=O)O)c2)c1 | x | -8.2 | x | 1.4
Cc1cc2nn(-c3ccc(Cl)cc3)nc2cc1NC(=O)COc1ccc([N+](=O)[O-])cc1 | x | 18.4 | x | 1.6
Cc1ccc(NC(=O)CN(C)S(=O)(=O)c2ccccc2)c(C)c1 | x | -45.9 | x | 1.6
COc1ccc(-c2nnc(SCC(=O)O)n2-c2ccccc2)cc1OC | x | -5.4 | x | -0.6
CNC[C@H]1Oc2ccc(NS(=O)(=O)c3ccccc3)cc2CC(=O)N([C@H](C)CO)C[C@H]1C | x | -8.4 | 0.295 | 0.5
C[C@@H]1CN([C@@H](C)CO)C(=O)c2cccc(NS(=O)(=O)c3ccc(Cl)cc3)c2O[C@H]1CN(C)S(=O)(=O)c1ccc(Cl)cc1 | -69.5 | 1.9 | -0.132 | 0.4
C[C@H]1CN([C@@H](C)CO)C(=O)c2cc(NS(=O)(=O)c3cn(C)cn3)ccc2O[C@@H]1CN(C)Cc1ccc(C(=O)O)cc1 | 5.3 | -3.4 | 0.0242 | 1.3
O=[N+]([O-])c1ccc(S(=O)(=O)N2CCN(C(=S)NCc3ccco3)CC2)cc1 | x | 20.5 | x | -1.5
Cc1ccc(Cl)c(OCC(=O)NCc2cccnc2)c1 | x | -15.0 | x | 0.6
O=C(COc1ccc(Cl)cc1Cl)Nc1cc(Cl)ccc1C(=O)O | x | -24.9 | x | 1.3
C[C@H](CO)N1C[C@H](C)[C@@H](CN(C)C(=O)Nc2ccc(C(F)(F)F)cc2)Oc2c(NC(=O)c3nc4ccccc4s3)cccc2C1=O | 5.9 | 1.0 | -0.632 | -2.4
C[C@@H]1CN([C@@H](C)CO)C(=O)c2cc(NS(=O)(=O)c3ccccc3)ccc2O[C@@H]1CN(C)S(=O)(=O)c1ccc(F)cc1 | 13.0 | 11.9 | 0.024 | -0.7
COc1ccc(-c2cc(=O)c3c(O)c(OC)c(O[C@H]4O[C@H](CO[C@@H]5O[C@@H](C)[C@H](O)[C@@H](O)[C@H]5O)[C@@H](O)[C@H](O)[C@H]4O)cc3o2)cc1 | -5.6 | -51.1 | 0.0506 | x
C[C@@H]1CN([C@@H](C)CO)C(=O)c2cc(NC(=O)Nc3ccc(C(F)(F)F)cc3)ccc2O[C@@H]1CN(C)C | 13.9 | 2.3 | -0.392 | -0.9
O=C(O)CCC(=O)Nc1cccc(F)c1 | -12.3 | -5.2 | -0.75 | 0.0
C[C@H]1CN([C@@H](C)CO)C(=O)c2cccc(NC(=O)NC3CCCCC3)c2O[C@@H]1CN(C)C(=O)Nc1ccc(C(F)(F)F)cc1 | 29.7 | 15.0 | -0.127 | -4.6
CC(C)NC(=O)Nc1cccc2c1O[C@@H](CN(C)Cc1ccncc1)[C@@H](C)CN([C@H](C)CO)C2=O | -17.8 | 0.1 | -0.139 | 0.4
Cc1ccccc1C(=O)NCCc1nc2ccccc2[nH]1 | x | -10.0 | x | -0.5
C[C@H]1CN([C@@H](C)CO)C(=O)Cc2cc(NC(=O)Nc3cccc4ccccc34)ccc2O[C@@H]1CN(C)C(=O)Nc1ccccc1 | x | 0.0 | 0.273 | -1.0
C[C@H](CO)N1C[C@H](C)[C@H](CN(C)C)Oc2c(NC(=O)NC3CCCCC3)cccc2C1=O | 20.3 | -14.6 | 0.275 | 3.3
C[C@H]1CN([C@@H](C)CO)C(=O)c2cc(NC(=O)Cc3ccccc3)ccc2O[C@H]1CN(C)Cc1ccc(Oc2ccccc2)cc1 | x | 13.3 | 0.0981 | x
Cc1c(C(N)=O)cc([N+](=O)[O-])cc1[N+](=O)[O-] | -71.3 | -7.0 | -0.334 | 4.5
C[C@H](CO)N1C[C@H](C)[C@H](CN(C)Cc2ccncc2)Oc2c(NC(=O)C3CCOCC3)cccc2C1=O | -25.3 | -1.9 | -0.119 | 1.5
C[C@H](CO)N1C[C@H](C)[C@H](CN(C)C(=O)Nc2cccc3ccccc23)Oc2c(NC(=O)Nc3ccc4c(c3)OCO4)cccc2C1=O | -89.0 | 3.1 | -0.621 | -0.6
CN(C)C(=O)Nc1ccc(Cl)c(Cl)c1 | 3.5 | -16.2 | -0.0442 | x
C[C@@H]1CN([C@H](C)CO)C(=O)c2cccc(NS(=O)(=O)c3cn(C)cn3)c2O[C@@H]1CN(C)C(=O)NC1CCCCC1 | -17.9 | 5.7 | -0.394 | 0.8
COc1ccc(NC(=O)Nc2ccc3c(c2)CC(=O)N([C@H](C)CO)C[C@H](C)[C@H](CN(C)S(=O)(=O)c2ccc(C)cc2)O3)cc1 | -5.7 | 39.9 | 0.187 | x
C[C@H]1CN([C@@H](C)CO)C(=O)Cc2cc(NC(=O)CCCCCC(=O)Nc3ccccc3N)ccc2O[C@H]1CN(C)S(=O)(=O)c1cccs1 | x | 3.5 | -0.174 | 1.1
COc1ccc(S(=O)(=O)Nc2ccc3c(c2)CC(=O)N([C@@H](C)CO)C[C@H](C)[C@H](CN(C)Cc2ccc(-c4ccccc4)cc2)O3)cc1 | -20.9 | 14.0 | -0.268 | 0.2
CCOC(=O)C1CCCN(S(=O)(=O)c2ccc(Cl)c(Cl)c2OC)C1 (stereo not drawn) | x | -3.9 | x | 0.5
C[C@H]1CN([C@@H](C)CO)C(=O)c2cccc(NC(=O)c3nc4ccccc4s3)c2O[C@@H]1CN(C)Cc1ccc(-c2ccccc2)cc1 | 17.0 | 31.0 | -0.314 | 0.9
C[C@H](CO)N1C[C@H](C)[C@H](CN(C)S(=O)(=O)c2ccccc2)Oc2ccc(NC(=O)CCCCCC(=O)Nc3ccccc3N)cc2C1=O | x | -3.2 | -0.101 | 1.0
Cc1cc(OCC(=O)Nc2ccccc2C(N)=O)cc(C)c1Br | x | -55.4 | x | 0.5
FC(F)(F)c1ncncc1-c1nnnn1-c1ccccc1 | -18.5 | -0.3 | 0.0145 | -0.9
CN1CCN(C2=Cc3ccccc3Oc3ccc(Cl)cc32)CC1 | u | -13.5 | 0.0196 | x
C[C@H](CO)N1C[C@H](C)[C@H](CN(C)S(=O)(=O)c2ccc(Cl)cc2)Oc2ccc(NC(=O)c3ccncc3)cc2CC1=O | -13.5 | 13.8 | 0.198 | 1.1

In a second layout: 2 of the compounds above.
Molecule,Hedgehog inh,MITF inhib,YB-1 expr inh,PD-1 reverse act
C[C@H]1CN([C@@H](C)CO)C(=O)c2cccc(NC(=O)c3nc4ccccc4s3)c2O[C@@H]1CN(C)Cc1ccc(-c2ccccc2)cc1,17.0,31.0,-0.314,0.9
C[C@H](CO)N1C[C@H](C)[C@H](CN(C)S(=O)(=O)c2ccccc2)Oc2ccc(NC(=O)CCCCCC(=O)Nc3ccccc3N)cc2C1=O,x,-3.2,-0.101,1.0

The list continues:
SMILES | Hedgehog inh | MITF inhib | YB-1 expr inh | PD-1 reverse act
Oc1ccccc1-c1cc(-c2ccc3c(c2)OCO3)cc(-c2ccccc2)n1 | -11.4 | -7.2 | 0.252 | 0.6
Cc1noc(C)c1S(=O)(=O)N(C)C[C@H]1Oc2ccc(NC(=O)Nc3ccccc3)cc2CC(=O)N([C@@H](C)CO)C[C@H]1C | -29.6 | -5.5 | -0.0127 | x
CC(=O)Nc1ccc(C(=O)CSc2ncn(-c3ccccc3)n2)cc1 | x | -61.4 | x | -1.0
CCOc1cc(C)c(Cl)cc1S(=O)(=O)n1nnc2ccccc21 | x | 41.9 | x | -0.9
Cc1cc(C)cc(OCC(=O)Nc2ccccc2N2CCN(C)CC2)c1 | x | 17.1 | x | -3.8
C[C@H]1CN([C@@H](C)CO)C(=O)c2cccc(NC(=O)Nc3cccc4ccccc34)c2O[C@@H]1CN(C)C(=O)NC1CCCCC1 | 18.2 | 0.6 | -0.114 | x
C[C@@H]1CN([C@H](C)CO)C(=O)c2cccc(NC(=O)Nc3ccc(F)cc3)c2O[C@H]1CN(C)C(=O)NC1CCCCC1 | -20.2 | 12.6 | 0.515 | 2.0
C[C@@H]1CN([C@H](C)CO)C(=O)c2cccc(NC(=O)C3CC3)c2O[C@H]1CN(C)Cc1ccc2c(c1)OCO2 | 28.0 | 10.5 | -0.266 | x
CCCCC/C=C\C/C=C\CCCCCCCC(=O)OCC(O)CO (stereo not drawn) | 4.0 | 5.2 | -0.578 | -1.8
CC1Oc2c3c(c4c(-c5ccccc5)cc(=O)oc4c2C(=O)C1C)OC(C)(C)C=C3 (stereo not drawn) | 58.6 | x | -0.683 | x
CSc1cccc(NC(=O)CSc2nnc(-c3cccc(C)c3)n2-c2ccccc2)c1 | x | 43.0 | x | -6.5

Compound profiles, from the list above:
Cc1cc(OCC(=O)Nc2ccccc2C(N)=O)cc(C)c1Br in the list: Hedgehog inh = x; MITF inhib = -55.4; YB-1 expr inh = x; PD-1 reverse act = 0.5
CCCCCC1C(=O)O/C(=C\C(=O)O)C1=O (stereo not drawn) in the list: Hedgehog inh = -28.6; MITF inhib = 4.6; YB-1 expr inh = 1.24; PD-1 reverse act = 2.7
